Menin-MLL FL inh: qHTS Assay for Inhibitors Targeting the Menin-MLL Interaction in MLL Related Leukemias: Competition With Fluorescein Labeled MLL-derived Peptide | Fluorescence polarization, fluorescein-MLL peptide displacement from menin | 290,000 tested, under 10 active | FP activity change, % at 61.4 µM; inconclusive = falling polarisation curve, or a change in total fluorescence; inactive = total fluorescence flat and polarisation flat or rising; no compound was filed as active; the % refers to the polarisation; negative = inhibition;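 note: % of control where 0% means no effect; inhibitors lower the polarisation; unlabelled MLL peptide was the positive control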
TRPML1 inh: qHTS for Inhibitors of the Human Mucolipin Transient Receptor Potential 1 (TRPML1) | hit rate 0.02% among 390,000 | Mucolipin-1 (Homo sapiens), Q9GZU1 | activity change, negative = inhibition, % (no concentration beside the values) | TRPML1-inducible cells, Ca2+ dye fluorescence, FDSS; active compounds read low; inhibition of EC80 agonist-evoked calcium signal; in the data active means activity change below about -50%; inconclusive means about -30% to -50%; inactive means above about -30%;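 note: stimulus is agonist 54-4 at its EC80 concentration; % is set by controls: 0 for no effect and ±100 for the full control effect; compound concentration not given in the record; the text of the record puts the active cut at -80%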
Target sequence (Q9GZU1 whole entry, looked up): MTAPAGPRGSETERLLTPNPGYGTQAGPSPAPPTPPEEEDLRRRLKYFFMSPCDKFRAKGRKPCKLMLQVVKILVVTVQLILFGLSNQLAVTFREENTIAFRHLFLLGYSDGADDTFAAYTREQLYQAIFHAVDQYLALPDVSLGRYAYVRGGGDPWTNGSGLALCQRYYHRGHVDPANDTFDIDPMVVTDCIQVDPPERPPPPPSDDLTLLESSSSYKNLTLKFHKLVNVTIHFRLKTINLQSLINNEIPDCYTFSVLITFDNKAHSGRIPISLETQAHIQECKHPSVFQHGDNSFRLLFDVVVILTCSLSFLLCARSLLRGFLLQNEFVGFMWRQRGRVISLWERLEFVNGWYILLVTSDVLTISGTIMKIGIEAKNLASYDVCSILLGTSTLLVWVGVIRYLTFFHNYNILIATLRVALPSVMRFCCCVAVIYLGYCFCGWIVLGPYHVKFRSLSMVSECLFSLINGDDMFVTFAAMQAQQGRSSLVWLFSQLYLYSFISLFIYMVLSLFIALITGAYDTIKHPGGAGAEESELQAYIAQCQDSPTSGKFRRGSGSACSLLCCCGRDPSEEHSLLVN
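Calcium fluorescence in TRPML1-DL cells induced overnight with Tet: a 110 s read after compound pin addition, then a 110 s antagonist read after challenge with 54-4 at 4 uM final (EC80).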
ClpP mod: qHTS Assay for Activators of ClpP; hit rate 1.9% among 340,000; ATP-dependent Clp protease proteolytic subunit (Bacillus subtilis (strain 168)), P80244; Potency, µM (top dose mostly 57.5 µM), for inactives: at the top dose activity change, negative = active; AID 651965, 2013; purified B. subtilis ClpP, FRET peptide cleavage, 20 min; active = well fitted falling curve with a large enough effect; inconclusive = small, poorly fitted or top-dose-only effect; inactive = no such curve, though single readings can be large or run the other way; note: potency is the fitted concentration of half-maximal effect; the source files actives as falling curves though it sought activators and does not explain the sign; nearly all actives have a fitted effect of over 65% in size; many hits overshoot -100%
Target sequence (P80244 whole entry, looked up): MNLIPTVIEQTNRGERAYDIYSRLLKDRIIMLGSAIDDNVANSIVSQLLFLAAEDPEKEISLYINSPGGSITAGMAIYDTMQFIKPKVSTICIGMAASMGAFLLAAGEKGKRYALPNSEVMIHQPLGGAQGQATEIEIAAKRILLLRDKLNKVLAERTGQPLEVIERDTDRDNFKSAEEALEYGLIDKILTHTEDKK
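ClpP 10 microg/mL final, pH 8 Tris/KCl buffer with BSA, glycerol, Tween-20; compound pinned in; FRET-FV substrate; RT 20 min; Ex320/Em430; ΔFRET vs ADEP 5.8 microM, DMSO, no enzyme.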
gsp antag: qHTS for Antagonists of gsp, the Etiologic Mutation Responsible for Fibrous Dysplasia/McCune-Albright Syndrome: qHTS; hit rate 0.4% among 340,000; gsp-mutant cells, cAMP HTRF, 30 min; control for the full effect not named in the record; Potency, µM (series often up to 76.9 µM), for inactives: at the top dose activity change, negative = inhibition, usual class: inhibitors; active = falling curve of any shape with a large fitted effect; inconclusive = falling curve, mostly with a smaller effect; inactive = flat or rising curve; cell line not stated here;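 note: intracellular cAMP measured with PDE inhibitor Ro 20-1724 present during compound exposure; potency is the fitted concentration of half-maximal effect; % is set by controls: 0 for no effect and ±100 for the full control effect; nearly all actives have a fitted effect of over 65% in size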
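HTRF cAMP measurement after 30 min RT detection following 30 min, 37C compound treatment alongside […] (added as 300 uM solution) in G418-selected cells seeded at 2000/well and grown 16–24 h.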
gsp agonist: qHTS for Agonist of gsp, the Etiologic Mutation Responsible for Fibrous Dysplasia/McCune-Albright Syndrome: qHTS; AID 624287, 2012; Potency, µM (titrated, usually from 76.9 µM), inactives show at the highest dose activation (cAMP increase), actives largely listed as activators; gsp mutant cells, cAMP HTRF, 30 min; control for the full effect not named in the record; hit rate 0.13% among 340,000; active = well fitted activation curve with a large enough effect; inconclusive = small, poorly fitted or top-dose-only effect, or another doubt; inactive = no such curve, though single readings can be large or run the other way; cell line not stated here;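 note: phosphodiesterase inhibitor Ro 20-1724 added with compounds to block cAMP breakdown; potency is the fitted concentration of half-maximal effect; nearly all actives have a fitted effect of over 60% in size; about a fifth of the inactives were tested at one dose only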
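Cells stably selected in G418 were plated at 2000/well, grown 16-24 hr, then given compounds in DMSO with the PDE inhibitor […] (300 uM solution added) for 30 min at 37C; cAMP was read by HTRF.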
TRPV1 potentiator: HTS Assay for Compounds that Act as Potentiators of the Vanilloid Receptor 1. potentiation, % at 8.33 µM. hit rate 0.02% among 320,000. Transient receptor potential cation channel subfamily V member 1 (Homo sapiens), Q8NER1. TRPV1-expressing cells, Fluo-8 calcium influx, capsaicin EC20 potentiation; host cell line not named in the record; control for the full effect not named in the record; active means potentiation above 80%; inconclusive means 30% to 80%; inactive means below 30%; note: 0% is about no effect
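Fluo-8 calcium influx in TRPV1-expressing cells, kinetic read (ex 480/em 520 nm). Compound added and read 3 min for agonist activity, followed by capsaicin at EC20 final and 2 min further read for enhancement.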
Sfp inh: qHTS Assay for Inhibitors of Bacillus subtilis Sfp phosphopantetheinyl transferase (PPTase); 4'-phosphopantetheinyl transferase ffp (Bacillus subtilis), Q9F4F7; Biochemical Sfp PPTase activity, qHTS; hit rate 3.5% among 310,000; Potency, µM, inactives show max response, negative = inhibition, hits mostly inhibitors; active = well fitted inhibition curve with a large enough effect; inconclusive = small, poorly fitted or top-dose-only effect, or another doubt; inactive = no such curve, though single readings can be large or run the other way;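 note: the enzyme is Sfp with the accession as filed and its product quenches rhodamine fluorescence; potency is the fitted concentration of half-maximal effect; 0% = enzyme reaction without inhibitor and -100% = no enzyme wells; top concentration of the series not given in the record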
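Buffer: 50 mM Hepes-Na pH 7.6, 10 mM MgCl2, 0.01% Nonidet P-40, 0.01% BSA. Enzyme 15 nM, pre-exposed to compound 15 min; substrates then added and fluorescence change tracked over 30 min.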
Numbers without * were called inactive; ? = inconclusive; · = no result given; & = joins results of further samples; [ ] = dose if it differs, or a comment.

No.	canonical_smiles	Menin-MLL FL inh	TRPML1 inh	ClpP mod	gsp antag	gsp agonist	TRPV1 potentiator	Sfp inh
1	COc1ccc(-c2csc(NC(C)c3nc4cc(C(=O)NCCCO)ccc4n3Cc3ccc(C)cc3)n2)cc1 (centres undefined)	·	-9	0.9%	-8%	-11%	·	·
2	CN(C)c1nc2c(N)ncnc2n1C1OC(CO)C(O)C1O (centres undefined)	·	-7	-5.9%	-10%	7%	·	·
3	CCOC(=O)c1c(-c2ccccc2)csc1NC(=O)/C(C#N)=C/c1ccc(OC)c(OC)c1	0.8	-5	0.6%	16%	?	2	9%
4	O=[N+]([O-])c1cccc(-c2ccc(/C=N/n3c(-c4ccccc4)n[nH]c3=S)o2)c1	0.5	13	-0.6%	-10%	6%	2	-18%
5	CC(=O)c1ccc(-n2cc(C#N)c(=O)[nH]c2=O)cc1	-0.4	11	-1.8%	7%	-22%	1	16%
6	Cc1ccc(-c2n[nH]c(=S)nc2-c2ccc(C)cc2)cc1	?	0	-5.4%	-16%	-4%	-8	9%
7	O=C(NCCc1ccccc1)c1ccc(Cl)c([N+](=O)[O-])c1	0.3	-10	-0.6%	-25%	14%	-6	-2%
8	COc1ccc(-c2ccc3nnc(SCC(N)=O)n3n2)cc1	-0.5	13	·	8%	17%[15.4 µM]	6	11%
9	CCN(CC)c1ccc(NC(=O)c2cncc(Br)c2)cc1	0.7	4	-3.7%	0%	-49%[inhibitor]	-11	-15%
10	O=C(O)c1cc(-c2ccc(Cl)cc2)n[nH]1	0.0	15	0.6%	3%	-9%	2	2%
11	CN(C(=O)c1ccc(NC(=O)Cc2cccc(NC(=O)C3CCCN(C(=O)c4ccccc4)C3)c2)cc1)C1CC1 (centres undefined)	·	6	0.8%	4%	·	·	·
12	O=C(CNC(=O)c1ccccc1)NCCO	-4.1	-17	·	3%	-37%[inhibitor]	-19	8%
13	CCN(c1cccc(C)c1)S(=O)(=O)c1nnc(NC(=O)c2ccco2)s1	4.6	24	-5.2%	-14%	-5%	6	24%
14	O=C(CN1C(=O)C(=O)N(Cc2ccccc2)C1=O)Nc1ccc(OC(F)F)cc1	·	-12	-0.9%	10%	15%	2	·
15	COc1ccc(-c2sc3ccccc3c2/C=C/c2ccc(N)cc2)cc1	·	6	?	2%	·	·	·
16	CC(C)N1CCN(Cc2nc3ccccc3s2)CC1CCO (centres undefined)	3.9	-7	·	5%	3%[15.4 µM]	-8	12%
17	Oc1ccc(/C=N/Nc2cc(N3CCOCC3)nc(N3CCOCC3)n2)cc1O	-0.7	34	-18%	6%	1%	-4	79µM*
18	CN(C)CCNC(=O)C1CC(=O)N(c2ccc(F)c(Cl)c2)C1 (centres undefined)	4.9	9	-1.1%	-1%	7%	-12	1%
19	O=C1C=C(c2cc3ccccc3s2)C[C@@H](c2ccc3c(c2)OCO3)C1	·	-1	-3.9%	3%	·	16	·
20	Cc1ccc2nc(Nc3nc(-c4ccccc4)cc(=O)[nH]3)nc(C)c2c1	4.2	-7	-2.6%	-6%	7%	16	15%
21	CN(CC(=O)Nc1ccc(Cl)c(C(F)(F)F)c1)C(=O)c1ccc2c(c1)NC(=O)CS2	·	34	-1.3%	-2%	14%	?	·
22	COc1ccccc1C(=O)NC(=O)COC(=O)/C(=C/c1ccccc1)NC(C)=O	·	13	?	-23%	9%[15.4 µM]	-2	10%
23	CC1CN(c2ncnc3c2c(-c2ccccc2)cn3-c2ccc(F)cc2)CC(C)O1 (centres undefined)	-2.4	-11	·	?	2%[15.4 µM]	-9	-6%
24	O=C(Nc1ccc(F)cc1F)c1ccc(-n2cccn2)c([N+](=O)[O-])c1	1.0	10	·	-6%	12%[15.4 µM]	16	10%
25	CC(C)(C)CC(=O)Nc1nnc(C(F)(F)F)s1	2.7	-18	-1.2%	-2%	11%	4	19%
26	O=C(O)CC(NCc1ccco1)C(=O)Nc1cccc(O)c1 (centres undefined)	-5.4	14	·	16%	11%[15.4 µM]	-1	?
27	COc1cc(C2Nc3ccccc3C(=O)N2NS(C)(=O)=O)ccc1O (centres undefined)	0.8	·	-22%	14%	-20%	-3	12%
28	O=C(OCCCc1ccncc1)c1ccc(S(=O)(=O)N2CCOCC2)cc1	-1.0	6	0.8%	-8%	-21%	-3	17%
29	O=C(CSC(=S)N1CCOCC1)Nc1nc(=O)c2ccccc2s1	5.0	·	·	·	·	-6	79µM*
30	COc1ccc(-n2nnnc2-c2cnc3cc4c(cc3c2C)OCO4)cc1	4.4	-8	-28%	?	22%	0	11%
31	COc1ccccc1C(=O)NC(=O)COC(=O)c1ccc(C)o1	·	14	·	5%	-15%[15.4 µM]	6	·
32	CCCOC(=O)CSc1nc(N)c(C#N)c(CC)c1C#N	-3.3	0	?	17%	-37%[inhibitor]	0	20%
33	CCOC(=O)C1=C(N)OC2=C(C(=O)CCC2)C1c1cccs1 (centres undefined)	5.5	-10	-1.5%	-9%	-2%	-12	?
34	Cc1ccc(NNC(=O)c2ccno2)cc1Cl	-0.6	-1	0.5%	13%	-7%	-20	1%
35	CC(C)CCNC(=O)Cc1ccccc1[N+](=O)[O-]	0.3	9	-0.7%	7%	-32%	4	4%
36	O=C(OCc1cc([N+](=O)[O-])cc2c1OCOC2)c1cccnc1SC(F)F	·	11	1.2%	-19%	16%[15.4 µM]	4	·
37	O=C(NCc1ccco1)c1c(F)cccc1Cl	0.5	4	-3.8%	9%	14%	8	-6%
38	CCC1(CC)NC(=O)N(CC(=O)OC(C)C(=O)Nc2ccc(NC(C)=O)cc2)C1=O (centres undefined)	·	-11	-0.5%	13%	4%[15.4 µM]	9	·
39	O=C(CN1C(=O)NC2(CCCC2)C1=O)Nc1cc(Cl)ccc1N1CCCCC1	·	18	1.0%	7%	-4%	10	3%
40	CCCCCCC[C@@H](C/C=C/CCC(=O)N(C)C/C(=C/Cl)C/C(=C\C(=O)N1CC(OC)=CC1=O)OC)OC	·	-2	0.4%	0%	·	·	·
41	CCCC(NCC(O)COc1ccc(-c2ccccc2)cc1)c1ccccc1 (centres undefined)	-3.9	2	0.2%	16%	-6%	2	-17%
42	COc1ccc(OCc2nn3c(-c4ccccn4)nnc3s2)cc1	4.7	-17	-2.8%	5%	17%	-7	-21%
43	COC(=O)C1=C(C(=O)OC)C2(OC1c1ccc(Br)cc1)C(=O)c1ccccc1C2=O (centres undefined)	3.5	16	3.3%	-20%	?	-2	?
44	O=C(CSc1nc2ccccc2[nH]1)N/N=C/c1ccco1	-1.8	-4	·	-5%	4%[15.4 µM]	5	1%
45	CN(C(=O)C1CCN(c2ncnc3c2nc2n3CCCCC2)CC1)C1CCCCC1	-5.4	-18	0.7%	-13%	?	-3	1%
46	O=C(COC(=O)c1ccco1)Nc1ccc(Cl)cn1	·	22	-7.7%	5%	?	·	·
47	COc1cccc(NC(=S)NNC(=O)c2ccccc2OC(F)F)c1	-1.3	-2	11%	-3%	0%	-1	17%
48	CCN(CC)C(=O)CSc1nc2cc3c(cc2c(=O)n1CCCC(=O)NCc1ccc(OC)cc1)OCO3	3.6	-10&-18	-1.7%&-2.4%	-14%	-6%[15.4 µM]	4	-21%
49	CCCc1cc(=O)[nH]c(SCc2ccccc2)n1	6.7	4	-0.9%	4%	-40%	11	4%
50	Cc1ccc(CN2CCN(Cc3cccc(C)n3)CC2CCO)cc1 (centres undefined)	-2.5	13	·	7%	8%[15.4 µM]	-1	2%
51	O=C(Nc1cc(S(=O)(=O)N2CCCCC2)ccc1O)c1ccccc1NS(=O)(=O)c1ccc(F)cc1	8.7	-7&-5	?	?	?	-3	-6%
52	COc1ccc(Cc2n[nH]c(=O)c3ccccc23)cc1OC	-1.0	-12	-0.1%	9%	1%	0	13%
53	CCC(=O)Nc1ccc(Cl)c(NC(=O)c2cccnc2)c1	-2.1	6	-1.7%	-1%	-23%	-5	30%[activator]
54	CCN(C1CCS(=O)(=O)C1)S(=O)(=O)c1ccc(Cl)s1 (centres undefined)	·	-1	-0.7%	7%	-1%	-25	·
55	COc1n[nH]c(C(=O)Nc2cc(Cl)ccc2Cl)c1[N+](=O)[O-]	-0.8	18	·	-32%	4%[15.4 µM]	0	-6%
56	O=C(Nc1ccc(CN2CCOCC2)cc1)c1ccc(-c2ccc(Br)cc2)o1	-1.6	22	-1.8%	-6%	6%	8	4%
57	O=C(Nc1c(-c2cccs2)nc2ccccn12)c1ccc2ccccc2c1	-5.4	·	·	·	·	-8	?
58	CNCc1ccccc1Sc1cccc2ccccc12	0.9	2	-1.9%	-5%	-24%	0	-5%
59	COc1ccccc1NC(=O)C(=O)NCc1ccncc1	-2.6	-4	·	-5%	5%[15.4 µM]	10	16%
60	COc1ccc(C2(c3ccc(OC)cc3)NC(=O)N(CC(=O)Nc3cc(C)ccc3OC)C2=O)cc1	·	4	1.4%	-7%	?	0	20%

(continued)
No.	canonical_smiles	Menin-MLL FL inh	TRPML1 inh	ClpP mod	gsp antag	gsp agonist	TRPV1 potentiator	Sfp inh
61	O=C(COC(=O)CCc1ccc(S(=O)(=O)N2CCCCC2)cc1)Nc1cccc2ccccc12	6.7	9	-1.9%	-7%	-1%	8	-4%
62	O=C(COC(=O)c1nc(Cl)ccc1Cl)NC1CCCCC1	·	12	-4.3%	-25%	-30%	23	·
63	CCOc1ccc(/C=C2\SC(=S)N(CCCC(=O)NCCCN3CCOCC3)C2=O)cc1	1.4	3	·	-5%	0%	-15	-23%
64	O=C(N/N=C\c1cccnc1)C1c2ccccc2Oc2ccccc21	-3.6	6	·	-3%	5%[15.4 µM]	-24	6%
65	CCOC(=O)c1c(C)oc2c1cc(O)c1ccccc12	0.7	-10	-6.0%	-4%	?	9	24%
66	Cc1ccc2nc(NC(=O)CN3C(=O)NC4(CCCC4)C3=O)sc2c1	·	-10	-2.5%	0%	7%	-3	·
